miR-21 FLuc: qHTS Assay for Modulators of miRNAs and/orActivators of miR-21. Potency, µM (doses to about 38.3 µM), for the others: top-dose reporter change, positive = more light. 340,000 tested, under 10 active. HeLa miR-21 FLuc reporter, luciferase, 48 h; active = well fitted rising curve with a large enough effect; inconclusive = small, poorly fitted or top-dose-only effect; inactive = no such curve, though single readings can be large or run the other way;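 further: % of control where 0% means no effect; miR-21 action dims this reporter so a rising signal means less miR-21 action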
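HeLa cells stably expressing CMV-driven firefly luciferase with a downstream miR-21 binding sequence, endogenously expressing miR-21, were treated with titrations (up to about 40uM final) for 48 hours at 37 degree Celsius. Luciferase luminescence was read after lysis.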
* hit, by the source's call; ? = inconclusive; [ ] = dose if it differs, or a comment. This is a subset; the hit share may differ from the screen's.

cpd	miR-21 FLuc	SMILES
1	2.3%	CCOc1ccc(CCn2c3c(c(=O)[nH]c2=O)C(NC(=O)c2ccccc2)(C(F)(F)F)C(=O)N3)cc1OCC (stereo unspecified)
2	28.5%	Cc1nc2ccn(Cc3cccs3)c(=O)c2cc1C(=O)Nc1ccccc1
3	-3.5%	Cc1cc(C)c(S(=O)(=O)NCC(c2ccc(N(C)C)cc2)N2CCOCC2)c(C)c1 (stereo unspecified)
4	0.2%	Cc1ccccc1NC(=O)CN(C)S(=O)(=O)c1cccc2nsnc12
5	-23.2%	Cc1cc(OC(C)C(=O)N(Cc2ccc(N(C)C)cc2)Cc2ccco2)ccc1Cl (stereo unspecified)
6	-7.5%	COc1cccc(Oc2nc3c(c(=O)n(Cc4ccccc4Cl)c(=O)n3C)n2C)c1
7	-2.2%	Cc1ccc(Cc2cnc(NC(=O)c3ccc4c(c3)CC(c3ccccc3)OC4=O)s2)cc1 (stereo unspecified)
8	-1.7%	COc1ccc(NC(=O)c2ccc3c(SCC(=O)O)c4c(nc3c2)CCC4)c(OC)c1
9	-0.4%	Cc1ccc(-c2noc(CN(C3CCCCC3)S(=O)(=O)c3ccc(Cl)cc3)n2)cc1
10	-1.2%	Cc1ccc(NC(=O)Cn2c(=O)n(Cc3ccc4c(c3)OCO4)c(=O)c3ccccc32)cc1
11	-3.0%	Cc1ccc(CNC(=O)c2nc(SCc3cccc(C)c3)ncc2Cl)cc1
12	5.6%	O=C(NCCc1csc2nc(-c3ccccc3F)nn12)c1ccccc1C(F)(F)F
13	-27.1%	CCOc1ccccc1CNC(=O)C1CCN(c2nn3cc(-c4ccc(F)cc4)nc3s2)CC1
14	0.0%	CCn1c2ccccc2c2cc(NC(=O)COc3cc(C)c(Cl)c(C)c3)ccc21
15	8.5%	CCC(C(=O)NCc1cc(OC)ccc1OC)n1nc(C)c2sc3ccccc3c2c1=O (stereo unspecified)
16	-2.5%	Cc1nn(C)c(C(=O)Nc2cccc(Nc3ccccc3)c2)c1[N+](=O)[O-]
17	22.5%	CCc1ccc(CNC(=O)c2sc3ncccc3c2-n2c(C)ccc2C)cc1
18	-5.2%	CCS(=O)(=O)N1CCC2(CC1)OC(=O)C(C)=C2C(=O)NCc1cccc(Cl)c1
19	-2.1%	Cc1ccc(C(C)C)c(OCCCn2c(=O)oc3ccc(C)cc32)c1
20	-0.2%	COCCN(Cc1ccc(C)c(Br)c1)S(=O)(=O)c1ccc2[nH]c(=O)ccc2c1
21	3.6%	Cc1cccc(NC(=O)C2CCCN(c3nc4ccccc4s3)C2)c1C (stereo unspecified)
22	1.5%	CCOc1ccc(-n2nc3ccc(NC(=O)COc4ccccc4C)cc3n2)cc1
23	17.1%	Cc1c(-c2ccccc2)n(-c2ccccc2O)c2nc3c(c(=O)n(C)c(=O)n3C)n12
24	-14.5%	COc1cccc(NC(=O)N(Cc2c[nH]c3ccccc23)C2CCCCCC2)c1
25	-16.4%	CCc1cccc(NC(c2ccccc2)c2nnc(-c3ccccc3F)o2)c1 (stereo unspecified)
26	-5.0%	O=S(=O)(NCCc1cn2ccsc2n1)c1ccc(Cl)cc1
27	0.5%	CCc1ccc(NC(=O)CCS(=O)(=O)c2ccc3c(c2)n(C)c(=O)c(=O)n3C)cc1
28	5.5%	CSc1ncc(Cl)c(C(=O)Nc2c(C(=O)Nc3cccc(Cl)c3)oc3ccccc23)n1
29	-10.1%	COc1ccc(-n2c(=O)c3c(c4cc(OC)ccc4n3C)n(CCC(C)C)c2=O)cc1
30	16.5%	CCOc1cccc(CC(=O)Nc2ccc3nc(N4CCCCC4)cc(C)c3c2)c1OCC
31	-2.4%	O=C(CCNS(=O)(=O)c1ccc2c(c1)CCN2C(=O)C1CC1)N1CCN(c2ccc(F)cc2)CC1
32	6.8%	CCc1ccc(-n2c(Cc3ccccc3)nnc2SCc2nc(-c3cccs3)no2)cc1
33	-12.2%	CC1(C)O[C@H]2[C@@H](O1)[C@@H](C(=O)Nc1ccccc1O)O[C@@H]1OC(C)(C)O[C@@H]12
34	28.6%	O=C(NCCc1ccccc1Cl)c1ccc2c(=O)n(-c3ccccc3)c(=O)[nH]c2c1
35	-9.2%	CCOc1ccc(NC(=O)Cn2ccn3nc(-c4ccc(OC)c(OC)c4)cc3c2=O)cc1
36	?	CCC(=O)N1CCc2cc(S(=O)(=O)CCC(=O)Nc3ccc(Cl)c(C(F)(F)F)c3)ccc21
37	-59.5%	COc1ccc(NCc2cccn2-c2nnc(N3CCC(C)CC3)s2)c(OC)c1
38	23.8%	COc1ccccc1CNC(=O)c1cc(Sc2cccc(Cl)c2)nc2ccccc12
39	-8.5%	CCc1ccc(NC(=O)CSc2nnc3[nH]c(=O)cc(-c4ccccc4)n23)cc1
40	29.4%	CCOC(=O)c1cccc(NC(=O)CCc2c(C)nc3cc(-c4ccc(Cl)cc4)nn3c2C)c1
41	-4.5%	COC(=O)c1ccc(-n2c(/C=C/c3cc(OC)c(OC)c(OC)c3)nc3cc(Cl)ccc3c2=O)cc1
42	7.9%	CCC1=C(c2ccc(C)cc2)S(=O)(=O)N=C1N1CCC(C(=O)NCc2ccc(N(C)C)cc2)CC1
43	4.5%	CCC(CC)C(=O)Nc1cccc(-c2nc3cccnc3s2)c1
44	-23.0%	Cc1ccc(NC(=O)N2CCc3c(sc4c3CCCC4)C2c2ccccc2)cc1F (stereo unspecified)
45	-2.7%	Cc1cc(C)c(S(=O)(=O)NCc2csc(-c3ccccc3)n2)c(C)c1
46	-2.3%	CCCSc1nnc2c(n1)OC(c1sccc1C)Nc1ccccc1-2 (stereo unspecified)
47	-56.9%	CCN(c1ncnc2c1cnn2-c1cccc(Cl)c1)C1CCCCC1
48	10.4%	CC1=C(C(=O)OCC(C)C)C(c2ccc(OCc3ccccc3)cc2)N2C(=O)CCSC2=N1 (stereo unspecified)
49	-50.2%	Fc1ccc(-n2ncc3c(NCCCc4ccccc4)ncnc32)cc1
50	-8.6%	COc1ccc2oc(=O)c(-c3nc(-c4ccc(C)c(C)c4)cs3)cc2c1
51	11.5%	COc1ccccc1N1CCN(C(=O)CCc2c(C)nn(-c3ccc(N4CCCC4)nn3)c2C)CC1
52	-14.8%	Cc1ccc(CN(C(=O)COc2ccc([N+](=O)[O-])cc2)c2ccccn2)o1
53	17.8%	CCOC(=O)Cn1c(=O)n(C2CCCCC2)c2nc(-c3c(F)cccc3Cl)nc(C(N)=O)c21
54	-2.3%	CCOC(=O)COc1ccc(CC)cc1C(=O)c1ccn2nc(-c3ccc(Cl)cc3)cc2n1
55	3.0%	COc1ccc(CCNc2nc3c(-c4cccc(F)c4)nnn3c3ccccc23)cc1OC
56	-17.6%	COc1cccc(NC(=O)N(Cc2cn(C)c3ccccc23)C2CCCCCC2)c1
57	0.9%	CCOc1ccc(S(=O)(=O)NCCc2c(C)[nH]c3c(Cl)cccc23)cc1C
58	20.4%	COc1ccc(S(=O)(=O)c2c(Nc3ccc(C)cc3C)sc(C(=O)c3ccc(F)cc3)c2N)cc1
59	-10.8%	COc1ccc(-c2noc(-c3ccc(N4CCN(C)CC4)c([N+](=O)[O-])c3)n2)cc1
60	-13.9%	Cc1nn(C(C)C(=O)NC2CCC(C)CC2)c(=O)c2cc3sccc3n12 (stereo unspecified)

(more compounds)
cpd	miR-21 FLuc	SMILES
61	-7.0%	Cc1ccc(NC(=O)/C(C#N)=C/c2ccccc2Cl)cc1C
62	21.9%	CCCCN(CCCC)CC(O)Cn1cc(/C=C/C(=O)c2ccccc2)c2ccccc21 (stereo unspecified)
63	-0.8%	CCS(=O)(=O)c1nc2ccccc2n1CC(=O)Nc1ccccc1C(=O)OC
64	?	Cc1ccc2[nH]cc(C(c3ccccc3)c3ccc(Cl)s3)c2c1 (stereo unspecified)
65	17.9%	CC1=C(C(=O)Nc2ccc(C)cc2C)C(c2ccccc2)n2ncc(C(=O)Nc3ccccc3)c2N1 (stereo unspecified)
66	1.6%	COc1ccc(C(=O)n2nc(N)c3cc4ccc(C)cc4nc32)cc1OC
67	13.2%	Cc1c(C(=O)N2CCC(C)CC2)c(S(=O)(=O)NCc2ccc(Cl)cc2)c(C)n1C
68	-0.9%	Cc1ccccc1CN1c2ccccc2-c2nc(SCC(=O)c3ccc(Cl)cc3)ncc2S1(=O)=O
69	-17.4%	Cc1ccccc1NC(=O)Cn1c(=O)n(Cc2ccc3c(c2)OCO3)c(=O)c2ccc(C(=O)NC3CCCCC3)cc21
70	-2.5%	O=c1c(-c2cc(-c3ccccc3)nc3c2COc2ccc(Cl)cc2-3)coc2ccccc12
71	12.4%	CCn1c(=O)c2cc(C(=O)NC3CCC(C)CC3)sc2c2ccccc21 (stereo unspecified)
72	-6.0%	COc1ccc(-c2noc(-c3ccc(NCc4cccnc4)c([N+](=O)[O-])c3)n2)cc1
73	?	O=C(NCc1ccc2c(c1)CCN2C(=O)c1ccncc1)c1cccc(Cl)c1
74	0.7%	Cc1ccc(N2C(=O)CS(=O)(=O)C23C(=O)Nc2ccccc23)cc1C (stereo unspecified)
75	-29.2%	CCc1ccc(NC(=O)C2CCN(C(=O)N3CC(CC)Oc4ccccc43)CC2)cc1 (stereo unspecified)
76	0.3%	CCN(CC)S(=O)(=O)c1ccc(OC)c(NC(=O)c2sc3ccccc3c2Cl)c1
77	-3.3%	Cc1cc(C)cc(N2C(=O)CSC23C(=O)N(CC(=O)Nc2ccc(F)cc2F)c2ccccc23)c1 (stereo unspecified)
78	-24.2%	COc1cc(-c2nnc(SCCOc3ccc(Cl)cc3C)o2)cc(OC)c1OC
79	2.0%	Cc1nn(Cc2ccccc2Cl)c(C)c1NC(=O)c1cc(C(C)C)on1
80	19.9%	CCc1ccc(-n2c(SCC(=O)NC(C)CC)nc3n[nH]c(C)c3c2=N)cc1 (stereo unspecified)
81	22.8%	Cc1cccc(OCc2ccc(-c3nc(C#N)c(N4CCC(C(N)=O)CC4)o3)o2)c1
82	-35.3%	O=C(Cn1c(SCc2ccc(F)cc2)nc2cccnc21)Nc1ccccc1F
83	1.6%	CC(C)(C)c1ccc(-c2nc(SCC(=O)Nc3ccc(Cl)cc3)[nH]c(=O)c2C#N)cc1
84	5.4%	CCOC(=O)N1CCN(C(=O)c2ccc3c(c2)N(Cc2ccccc2F)C(=O)c2ccccc2S3=O)CC1 (stereo unspecified)
85	?	Cc1ccc(CC(=O)Nc2ccc3c(c2)N(C)C(=O)c2ccccc2S3)cc1
86	19.7%	O=c1cc(CSc2ccccc2)[nH]c2ccc(F)cc12
87	1.2%	O=S(=O)(c1ccc(Br)cc1)c1nnn2c1nc(NC1CCCCCC1)c1sccc12
88	-27.8%	Cc1ccc(C(=O)Nc2nnc(S(=O)(=O)N(C)Cc3ccco3)s2)cc1
89	-1.5%	CCc1ccc(OCC(=O)Nc2c(C(=O)c3ccc(Br)cc3)oc3ccccc23)cc1
90	-4.6%	CCC(=O)N1c2ccccc2CC1C(=O)NCCc1ccc(SC)cc1 (stereo unspecified)
91	26.7%	COc1ccccc1NC(=O)CSc1oc(-c2ccccc2)nc1S(=O)(=O)c1ccccc1
92	-12.6%[7.66 µM]	CCCC[C@]12Cc3cc(C#N)ccc3C(O1)c1c(cc(C)n(Cc3ccccc3)c1=O)O2
93	2.6%	CCOc1ccc(Nc2oc(/C=C/c3cccc(OC)c3)nc2C#N)cc1
94	?	Cc1ccc(NC(=O)C(=O)NCC(c2cccnc2)N2CCN(C)CC2)cc1 (stereo unspecified)
95	29.7%	CCSc1nn(CC(=O)Nc2cccc(Cl)c2)c(N)c1S(=O)(=O)c1ccc(OC)cc1
96	9.1%	CCOC(=O)c1ccc(NC(=O)c2csc3c2CCCCC3)cc1
97	4.0%	COc1cccc(C2=CC(c3ccccc3F)n3c(nc4ccccc43)N2)c1 (stereo unspecified)
98	-0.9%	CCOc1ccc(CCNC(=O)NCc2noc3ccc(C)cc23)cc1
99	?	COc1cc(-c2nnn(CC(=O)Nc3ccc(OC(F)(F)F)cc3)n2)cc(OC)c1OC
100	-30.9%	Cc1ccc(C2=NC(c3ccccc3)=Nc3ccc(Cl)cc3N2)cc1
101	-33.6%	Cc1ccc(CNC(=O)c2ccc3nc(N4CCCCC4)sc3c2)cc1
102	-28.8%	O=C(Cn1cc(SCc2ccc(F)cc2)c2ccccc21)N1CCCC1
103	-13.2%	Cc1ccc2c(=O)c(C(=O)c3ccc(Cl)cc3)cn(CC(=O)Nc3ccc4c(c3)OCCO4)c2n1
104	?	O=C(CCSCc1ccccc1Cl)NCc1ccc(F)cc1Cl
105	-31.5%	Cc1ccc(-n2ncc3c(N4CCCCCC4)ncnc32)cc1Cl

Compound activity: PubChem, National Center for Advancing Translational Sciences (NCATS)
